# FGF22 binding: shifts melting point of recombinant human FGF22. Q9HCT0. recombinant FGF22 thermal shift, SYPRO orange fluorescence; percent of sucrose octasulfate shift, DMSO zero. calls only at 9.99 µM. 340,000 tested, 1.5% active. AID 651658;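 active = melting point raised past a set limit in the mean and every replicate; inconclusive = no clear call; three in four hits are not shown here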
# Target sequence (Q9HCT0 whole entry, looked up): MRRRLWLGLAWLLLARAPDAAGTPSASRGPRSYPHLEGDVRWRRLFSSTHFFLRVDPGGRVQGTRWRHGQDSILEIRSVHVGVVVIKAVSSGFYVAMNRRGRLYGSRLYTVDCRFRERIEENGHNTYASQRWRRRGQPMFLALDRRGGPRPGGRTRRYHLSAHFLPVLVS
# rRNA inh HTS: inhibits bacterial ribosomal RNA function over humanized ribosomes. E. coli WT GFP vs humanized-ribosome RFP mutants, fluorescence, 24 h; hits give low values; DMSO median 0, no signal -100. 350,000 tested, 1.6% active. AID 720706. GFP signal change (wild-type ribosome), % (no concentration beside the values);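 active = significant combined selectivity score with lowered wild-type GFP, culture density cut under 30%, mutant RFP and density less affected; inactive = any of these conditions unmet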; also: one replicate is shown; some compounds called inactive have numbers as strong as hits
# T cruzi repl: T. cruzi replication inhibition | T. cruzi beta-gal in NIH3T3, luminescence, 90 h | 300,000 tested, 1.4% active | inhibition, % (no concentration beside the values);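 active = mean inhibition across valid replicates above about 55%, limit read from the data; inconclusive = mean below that limit but half or more replicates reach it; inactive = mean below it, under half of replicates reach it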;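 also: signal also drops with host cell toxicity which is not excluded here; 0% = plate median of DMSO wells and 100% = zero luminescence signal; higher percent means less beta-gal luminescence so fewer parasites; stock transfer was 50 nL into about 50 µL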
# AF4-AF9 inh: blocks AF4 peptide binding to human AF9. P42568. AlphaScreen, biotin-AF4 peptide binding to FLAG-AF9. inhibition, % at 10 µM. 350,000 tested, 0.47% active. AID 651704;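 active = every replicate reaching a set inhibition limit, whatever the replicate mean, cut at about 25% in these data; inconclusive = mean inhibition reaches that limit but some replicates miss it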;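 also: 0% = plate neutral control median and 100% = total signal loss; the record names both 10 and 1 µM as test concentration; the first replicate is given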
# Target sequence (P42568 whole entry, looked up): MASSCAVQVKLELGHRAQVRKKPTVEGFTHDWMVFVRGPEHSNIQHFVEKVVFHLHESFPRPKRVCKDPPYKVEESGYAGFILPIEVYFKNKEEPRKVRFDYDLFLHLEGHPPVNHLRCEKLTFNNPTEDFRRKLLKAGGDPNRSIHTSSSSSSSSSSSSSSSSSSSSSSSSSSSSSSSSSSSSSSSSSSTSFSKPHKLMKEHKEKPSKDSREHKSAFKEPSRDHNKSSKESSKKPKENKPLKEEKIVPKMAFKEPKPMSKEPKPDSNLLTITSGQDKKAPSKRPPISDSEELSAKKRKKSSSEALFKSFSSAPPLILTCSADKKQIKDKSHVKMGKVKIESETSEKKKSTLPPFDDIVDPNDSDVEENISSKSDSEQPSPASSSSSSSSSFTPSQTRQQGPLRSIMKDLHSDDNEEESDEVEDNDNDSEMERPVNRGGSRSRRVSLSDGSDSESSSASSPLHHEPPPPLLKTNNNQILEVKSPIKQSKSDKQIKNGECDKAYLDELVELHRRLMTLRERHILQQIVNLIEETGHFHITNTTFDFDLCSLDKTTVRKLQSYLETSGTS
# RanGTP-Impb inh: inhibitors of RanGTP-importin-beta interaction, primary screen, biochemical, FRET, CFP-Ran, YFP-importin-beta, homogeneous; inhibition, % (concentration not given with the values); cell-free CFP-Ran/YFP-importin-beta FRET ratio; 300,000 tested, 1.1% active;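 active = most replicates above 15%; inconclusive = exactly half above 15%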;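 also: 0% = DMSO wells and 100% = Ran loaded with GDP instead of GTP; wells of about 40 µL received 100 nL stock; the first replicate is given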
# Beta apoptosis: blocks beta cell apoptosis; 300,000 tested, 0.8% active; AID 435005; protection from apoptosis, % (no concentration beside the values); INS-1E cytokine-induced death, ATP luminescence, 48 h; percent of positive-control rescue, neutral wells zero;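 active = all replicates at 75% or more, or half of them and the mean; inconclusive = half reach 75% but not the mean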;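 also: 0% = cytokine-treated negative control wells and 100% = positive control rescue; higher means more ATP so stronger rescue from cytokine killing; wells of about 40 µL received 100 nL stock; the first replicate is given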
# ALR inh: inhibitors of human sulfhydryl oxidase ALR | P55789 | purified ALR, DTT oxidation, H2O2 HRP-luminol luminescence | inhibition, % (concentration not given with the values) | 290,000 tested, 3.8% active | AID 485317;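 active = mean and each replicate at 75% or more; inconclusive = only one of the two met; inactive = neither met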;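 also: stock transfer was 7.5 nL into about 7.5 µL; 0% = neutral wells and 100% = wells with inactivated enzyme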
# Target sequence (P55789 whole entry, looked up): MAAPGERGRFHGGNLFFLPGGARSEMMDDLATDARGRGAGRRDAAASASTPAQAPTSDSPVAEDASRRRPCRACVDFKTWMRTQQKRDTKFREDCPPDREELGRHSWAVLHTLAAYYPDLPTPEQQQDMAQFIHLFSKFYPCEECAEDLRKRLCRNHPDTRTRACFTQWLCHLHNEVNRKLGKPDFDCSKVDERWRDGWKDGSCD
# Calb FLC: affects C. albicans growth with fluconazole; C. albicans CaCi-2 (fluconazole-resistant clinical isolate) + fluconazole, Alamar Blue growth, 48 h; growth inhibition, % (concentration not given with the values); 300,000 tested, 0.57% active; AID 1979;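 active = most replicates above 75%; inconclusive = exactly half above 75%; inactive = most below 75%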;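 also: all wells also contain fluconazole at 8 µg/ml as a sub-toxic cotreatment; 0% = median of DMSO wells and 100% = median of geldanamycin control wells; wells of about 8 µL received 7.5 nL stock; the first replicate is given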
# rRNA inh HTS OD600: further read-out of rRNA inh HTS, marked with its call; OD600 change, %; measured here: OD600 growth;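 optical density of the mix in the first replicate; 0 = DMSO median and -100 = no signal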
# rRNA inh HTS RFP: also measured in rRNA inh HTS; calls as there; RFP signal change, %; measured here: RFP humanized mutant strains;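 first replicate; 0 = DMSO median and -100 = no signal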
# Active calls of the source: *; i = inactive; u = inconclusive; x = no result given; + = active, no number.
SMILES,FGF22 binding,rRNA inh HTS,rRNA inh HTS OD600,rRNA inh HTS RFP,T cruzi repl,AF4-AF9 inh,RanGTP-Impb inh,Beta apoptosis,ALR inh,Calb FLC
O=C(CNC(=O)c1ccccc1)NCc1nc2ccccc2[nH]1,i,4,11,-4.7,-10,-1.0,-0.3,4,x,2
CCN(CC)CCCNC(=O)Cn1cnc2sc(C)c(S(=O)(=O)N3CCN(c4ncccn4)CC3)c2c1=O,i,10,6,0.5,-11,-1.7,0.9,-8,-25,u
Cn1cnnc1SCC(=O)Nc1ccc(Oc2ccccc2)cc1,i,-3,-14,-1.6,4,2.9,4.0,5,1,26
COc1ccc(OC)c(-c2cc(C(=O)N/N=C/c3ccc(F)cc3)c3ccccc3n2)c1,i,4,10,-0.5,-3,5.5,-1.4,x,3,-1
O=C(Nc1c(F)cccc1F)c1ccc(-n2cncn2)nc1,x,x,x,x,-9,x,6.5,0,0,0
CN(C)c1ccc(/C=C2\CCC/C(=C\c3ccccc3)C2=O)cc1,i,2,-4,0.0,11,2.8,-2.2,1,22,-2
COc1ccccc1CCC(=O)Nc1ccc(OC)c(S(=O)(=O)N2CCCCC2)c1,i,-26,-46,29,x,2.8,x,-1,-10,x
C=C(c1ccccc1)c1ccccc1N,i,14,12,-8.2,-7,0.5,2.7,-21,x,-10
COc1ccc2nc(NC(=O)c3ccccc3F)sc2c1,i,6,11,-0.7,0,-2.2,4.1,8,-9,-22
CCCCn1c(N)c(N(CCOC)C(=O)CCNC(=O)c2ccc(Br)cc2)c(=O)[nH]c1=O,i,4,7,-0.9,-6,-0.2,0.5,-21,x,-7
O=C(NC(=S)Nc1cc(S(=O)(=O)N2CCOCC2)ccc1O)c1ccco1,+,-15,-12,-5.7,-9,-1.9,0.4,0,35,5
Cc1nc(C)c(-c2csc(Nc3ccc(O)c(C(=O)O)c3)n2)s1,i,-3,-1,-2.9,-10,-0.2,-3.9,x,89*,-7
CCCC(C)NC(=O)COC(=O)c1ccc2c(c1)C(=O)N(Cc1ccco1)C2=O (stereo not given),i,5,4,0.5,-13,-2.5,-1.5,3,-4,9
O=C1CNC(=O)/C(=C\c2ccccc2)N1,i,-2,6,-0.4,-3,-5.0,1.1,-4,x,-7
CC(=O)Nc1nonc1-c1nc2ccccc2n1C,i,17,3,0.6,2,-2.0,-4.7,1,3,-24
COc1ccc(C(=O)NNC(=O)Cc2ccc(-c3ccccc3)cc2)cc1OC,x,x,x,x,16,x,5.5,-5,-9,7
CCOc1ccc(OCC)c(NC(=O)c2nnn(CC(=O)Nc3cc(C)cc(C)c3)c2N)c1,i,2,-1,-4.1,36,-3.8,0.9,10,0,2
CCN1CCN(C(=O)c2ccc(OC3CCN(CCc4ccccc4)CC3)cc2)[C@@H](C)C1=O,i,7,2,-1.7,-3,0.4,-2.0,-2,1,1
CCN(c1ccccc1)S(=O)(=O)c1cccc(C(=O)OCC(=O)Nc2ccc(NC(C)=O)cc2)c1,i,0,-17,10,x,-3.0,x,-5,-2,x
CC(=O)N1c2ccc(S(=O)(=O)NCCC(=O)NC3CCCC(C)C3C)cc2CC1C (stereo not given),i,6,10,6.6,-17,-3.0,3.3,11,1,9
Cc1c(N2C(=O)C3C4C=CC(C4)C3C2=O)c(=O)n(-c2ccccc2)n1C (stereo not given),i,1,5,-2.8,0,-1.7,0.8,-8,x,2
CCC(=O)c1ccc(OCC(=O)OCC(=O)N2CCc3ccccc3C2)cc1,i,0,6,-0.4,x,-3.5,x,1,3,x
O=C(NCCC(=O)N1CCC2(CC1)NCCc1[nH]cnc12)c1ccc(F)c(F)c1,i,4,5,-2.4,-9,-2.7,-1.1,-4,-5,2
Fc1cccc(Nc2ncnc3c2cnn3-c2ccccc2)c1,i,-56,-79,-11,9,3.3,u,19,-4,-8
CCCCOC(=O)C1CN(c2ccccc2)N=C1C(=O)OCC (stereo not given),x,x,x,x,-14,x,5.1,-1,7,-5
O=c1c2ccccc2nc(SCCN2CCOCC2)n1CCc1ccccc1,i,-39,-49,-3.9,45,7.0,0.6,2,0,-2
Cc1c(C(=O)Nc2ccc(Cc3ccncc3)cc2)cccc1[N+](=O)[O-],i,-11,-23,-3.8,-66,-4.6,1.9,22,x,-4
CC(C)C[C@H](NC(=O)c1[nH]cnc1C(=O)N[C@@H](Cc1ccccc1)C(=O)OC(C)(C)C)C(=O)OC(C)(C)C,i,10,-5,-12,30,1.7,-4.2,26,-6,0
Cc1ccc([C@@H]2[C@@H]3C(=O)N(C)C(=O)[C@@H]3[C@]3(C)C(=O)N(CC4CC4)CC(=O)N23)o1,i,x,x,x,-15,-6.3,0.9,-3,3,-12
Cc1csc(NC(=O)c2ccc3c(c2)OCO3)n1,i,1,2,-0.9,-4,0.4,-1.4,4,x,0

# Compounds above with an aryl thioether with sulfur outside any ring:
SMILES,FGF22 binding,rRNA inh HTS,rRNA inh HTS OD600,rRNA inh HTS RFP,T cruzi repl,AF4-AF9 inh,RanGTP-Impb inh,Beta apoptosis,ALR inh,Calb FLC
Cn1cnnc1SCC(=O)Nc1ccc(Oc2ccccc2)cc1,i,-3,-14,-1.6,4,2.9,4.0,5,1,26
O=c1c2ccccc2nc(SCCN2CCOCC2)n1CCc1ccccc1,i,-39,-49,-3.9,45,7.0,0.6,2,0,-2

# Next entries.
SMILES,FGF22 binding,rRNA inh HTS,rRNA inh HTS OD600,rRNA inh HTS RFP,T cruzi repl,AF4-AF9 inh,RanGTP-Impb inh,Beta apoptosis,ALR inh,Calb FLC
COc1cccc(C(O)CC(N)=O)c1 (stereo not given),x,x,x,x,-5,x,0.9,x,-4,1
Cc1ccc(C2=NN(C(=O)CNCCO)C(c3cccs3)C2)cc1 (stereo not given),i,7,8,1.5,7,6.7,2.5,-9,2,9
CCOc1ccc(C(=O)C(C)OC(=O)Cn2cnc3c2c(=O)n(C)c(=O)n3C)cc1 (stereo not given),i,5,9,-2.3,1,-3.1,-0.5,3,1,1
COc1ccccc1OCCNC(=O)C(CCSC)NS(=O)(=O)c1ccccc1F (stereo not given),i,-3,-3,-1.3,3,8.3,3.1,1,-4,-7
COc1cc(OC)cc(-c2c(C#Cc3ccsc3)c3cc(-c4ccc(N(C)C)nc4)ccc3n2C)c1,i,11,6,2.4,x,-1.7,x,0,3,x
CC1CCCC(NC(=O)CCNC(=O)c2ccc(Cl)cc2)C1C (stereo not given),i,7,13,2.0,31,0.5,-1.7,-7,1,-7
CCN1CCN(C(=O)c2ccc3nc(-c4ccccc4)c(-c4ccccc4)nc3c2)CC1,i,0,-4,0.5,23,3.5,0.3,2,x,14
Cc1ccc(-n2ncc3c2CC(C)(C)CC3NC(=O)CCc2c(C)noc2C)cc1 (stereo not given),i,-5,-13,3.5,-8,-0.4,0.8,-4,-16,15
COc1nc(C)ccc1-c1noc(-c2cccs2)n1,i,13,5,1.8,25,-4.2,1.7,1,-6,7
COc1ccc(OC)c(NS(=O)(=O)c2c(C(=O)N3CCCCCC3)c(C)n(C)c2C)c1,i,3,6,-2.3,2,4.2,3.2,-6,-10,7
CC1CCCCC12NC(=O)N(CC(=O)N(C)Cc1nc3ccccc3c(=O)[nH]1)C2=O (stereo not given),i,3,12,1.0,x,-0.1,x,-2,-13,x
COC(=O)Cn1c(=O)sc2ccccc21,x,x,x,x,0,x,0.2,-4,-5,0
COc1ccc(S(=O)(=O)Nc2ccccc2C(=O)N2CCOCC2)cc1F,i,7,5,0.0,-13,-1.5,-3.5,-6,-5,1
CC1CN(Cc2nc3c(c(=O)n(C)c(=O)n3C)n2CC(=O)c2ccccc2)CC(C)O1 (stereo not given),x,x,x,x,-4,x,-0.5,-1,-7,-12
CCOc1ccc(S(=O)(=O)N2CCC(C(=O)N3CCCCCC3)CC2)cc1Cl,i,-8,-11,-0.3,11,-1.3,-3.7,2,-31,-15
C/C(=N/NC(=O)c1cccs1)c1cccs1,i,x,x,x,16,0.1,0.7,2,-4,-1
COc1cccc(C(=O)Nc2nc3c(c(=O)[nH]2)CCCC3)c1,x,x,x,x,-9,x,u,0,-1,3
O=C(OC1CCOC1=O)c1cc(S(=O)(=O)N2CCOCC2)c(Cl)cc1Cl (stereo not given),i,6,18,-2.9,x,-0.7,x,-17,-1,x
O=C(NC1CC1)c1ccc2c(c1)ncn2C1CCCC1,x,x,x,x,-2,x,4.2,0,-8,0
O=C(CCc1c[nH]c2ccccc12)OCc1cccc([N+](=O)[O-])c1,i,-13,-8,3.6,-11,7.2,-0.3,-5,3,-2
O=C(Nc1cccc(NC(=O)c2cccnc2)c1)c1ccccc1,i,-2,-1,-2.8,6,-2.8,-3.8,-4,-15,-9
CCN1C(=O)c2ccccc2S(=O)c2ccc(C(=O)NC3CC3)cc21 (stereo not given),i,0,1,-10,3,5.8,0.0,-4,-15,6
CCC(C)(C)n1nnnc1C(c1cccnc1)N1CCCc2ccccc21 (stereo not given),i,-17,-15,-5.4,-9,0.4,5.8,2,-11,5
O=C(NC1CCCC1)c1ccc(Br)s1,x,x,x,x,-2,x,5.6,-5,0,-15
CCOC(=O)c1c(NC(=O)COC(=O)Cn2cnc3ccccc32)sc2c1CCC(C)C2 (stereo not given),i,-45,-75,-25,x,-3.5,x,0,-50,x
COc1ccc(-c2nnn(CC(=O)NC3CCCc4ccccc43)n2)cc1OC (stereo not given),x,x,x,x,-6,x,-1.9,-4,-18,7
CNc1ccc(/C=C2\CSc3ccccc3C2=O)cc1[N+](=O)[O-],i,14,4,1.1,1,-0.5,u,10,5,6
NNC(=O)c1cc(Br)cs1,x,x,x,x,-6,x,3.0,-4,57,-2
O=C(NCc1ccco1)C1CCCN(S(=O)(=O)c2cccc3nsnc23)C1 (stereo not given),x,x,x,x,1,x,-3.8,1,3,-4
CCCCCCCCn1ccc(=N)cc1,i,8,10,-1.5,39,-2.9,0.8,130*,-2,1
CC(=O)Oc1ccccc1/C=C/c1nc2ccccc2c(=O)o1,i,11,7,-0.6,-19,4.1,-3.6,-7,17,-2
COC(=O)Nc1nnc(CC(=O)Nc2ccccc2C)s1,x,x,x,x,8,x,3.4,-1,-9,28
O=C1c2ccccc2S(=O)(=O)c2cc(C(=O)N3CCN(C(=O)c4ccccc4)CC3)ccc21,x,x,x,x,2,x,-0.8,-3,-1,0
COc1ccccc1NC(=O)c1ccc(S(=O)(=O)N2CCC(C)CC2)cc1,i,-2,-15,-5.5,4,0.0,3.6,1,x,12
COc1ccc(C(=O)COC(=O)Cn2nnc3ccccc32)cc1Br,x,x,x,x,-25,x,-1.6,-3,-16,-1
COC(=O)c1c(-c2ccc(C(C)(C)C)cc2)csc1NC(=O)C1C2CCC(O2)C1C(=O)O (stereo not given),i,-12,-6,-2.2,-6,-21,-2.9,-6,36,-7
Cc1nnc(N2CCOCC2)c2nn(-c3cccc(Cl)c3)c(C)c12,x,x,x,x,6,x,-3.0,3,-20,10
CCOC(=O)N1CCN(c2c(F)cc3[nH]c(=S)[nH]c3c2Br)CC1,x,x,x,x,30,x,-2.3,14,40,-9

# A portion of the library, so the mix of outcomes need not match the whole.
